LANA-H2B inh = blocks KSHV LANA binding to histone H2A/H2B. hit rate 0.6% among 320,000. AID 2629. Q9QR71. inhibition, % (concentration not given with the values). cell-free LANA-H2A/H2B peptide, fluorescence polarization; in the data active means inhibition mostly above about 10%, no sharp cut-off; inactive means mostly below about 6.7%;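 further: stock transfer was 7.5 nL into about 10 µL; 0% = median of vehicle wells and 100% = median of positive control wells; one replicate is shown; the record names a cut of 25% in any replicate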
Target sequence (Q9QR71 whole entry, looked up): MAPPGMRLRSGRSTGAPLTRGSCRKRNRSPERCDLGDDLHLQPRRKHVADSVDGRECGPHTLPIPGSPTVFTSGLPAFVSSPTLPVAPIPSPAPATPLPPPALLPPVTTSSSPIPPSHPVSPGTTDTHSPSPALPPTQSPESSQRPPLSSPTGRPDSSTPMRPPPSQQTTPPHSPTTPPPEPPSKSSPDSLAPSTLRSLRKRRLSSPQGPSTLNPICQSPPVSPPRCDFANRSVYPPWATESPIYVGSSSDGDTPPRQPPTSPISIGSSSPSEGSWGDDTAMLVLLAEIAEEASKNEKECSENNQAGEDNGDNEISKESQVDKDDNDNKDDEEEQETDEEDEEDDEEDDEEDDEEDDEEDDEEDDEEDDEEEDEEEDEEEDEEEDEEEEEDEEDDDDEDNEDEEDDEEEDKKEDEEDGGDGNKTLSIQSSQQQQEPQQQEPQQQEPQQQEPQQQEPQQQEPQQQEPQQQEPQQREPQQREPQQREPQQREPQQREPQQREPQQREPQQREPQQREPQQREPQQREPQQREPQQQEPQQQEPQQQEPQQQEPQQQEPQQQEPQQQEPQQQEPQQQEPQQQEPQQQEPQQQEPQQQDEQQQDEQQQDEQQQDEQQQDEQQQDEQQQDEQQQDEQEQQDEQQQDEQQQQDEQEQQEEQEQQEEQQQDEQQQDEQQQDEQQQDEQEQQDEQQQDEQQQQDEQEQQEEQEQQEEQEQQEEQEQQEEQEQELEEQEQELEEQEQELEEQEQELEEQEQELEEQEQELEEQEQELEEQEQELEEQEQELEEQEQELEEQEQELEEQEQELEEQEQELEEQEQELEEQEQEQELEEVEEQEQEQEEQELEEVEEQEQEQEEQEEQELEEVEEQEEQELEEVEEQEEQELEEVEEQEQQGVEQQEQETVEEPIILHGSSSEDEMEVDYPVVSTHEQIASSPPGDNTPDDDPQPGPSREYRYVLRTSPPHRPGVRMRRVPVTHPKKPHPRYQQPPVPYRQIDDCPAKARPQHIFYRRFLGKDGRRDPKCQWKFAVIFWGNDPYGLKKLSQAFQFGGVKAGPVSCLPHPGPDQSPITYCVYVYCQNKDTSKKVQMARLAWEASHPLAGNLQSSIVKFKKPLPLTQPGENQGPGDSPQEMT
UCH37 inh = human UCH37 deubiquitinating enzyme inhibition | purified proteasome/UCH37, Ub-AMC cleavage fluorescence | inhibition, % (concentration not given with the values) | hit rate 0.33% among 330,000 | AID 588478;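 active means mean of two replicates above 20%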;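 further: 0% = compound-free wells with enzyme and 100% = wells lacking proteasome; stock transfer was 100 nL into about 20 µL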
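System: Proteasome-associated human UCH37 deubiquitinase; Input: 0.15 nM proteasome in added enzyme buffer; Also added: Ub-AMC substrate from 1 µM stock; Incubation: 30 min compound-proteasome preincubation then 25 min substrate reaction, room temperature; Detection: fluorescence, ex 355 nm, em 460 nm; Read-out: % inhibition of Ub-AMC cleavage fluorescence; Benchmarks: no-proteasome and no-compound wells.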
Calb FLC = affects C. albicans growth with fluconazole; AID 1979; hit rate 0.57% among 300,000; growth inhibition, % (no concentration beside the values); C. albicans CaCi-2 (fluconazole-resistant clinical isolate) + fluconazole, Alamar Blue growth, 48 h;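 active means most replicates above 75%; inconclusive means exactly half above 75%; inactive means most below 75%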;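 further: all wells also contain fluconazole at 8 µg/ml as a sub-toxic cotreatment; 0% = median of DMSO wells and 100% = median of geldanamycin control wells; wells of about 8 µL received 7.5 nL stock; the first replicate is given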
Beta cell apopt = beta cell apoptosis inhibition. INS-1E cytokine-induced death, ATP luminescence, 48 h; percent of positive-control rescue, neutral wells zero. protection from apoptosis, % (concentration not given with the values). hit rate 0.8% among 300,000. AID 435005;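 active means all replicates at 75% or more, or half of them and the mean; inconclusive means half reach 75% but not the mean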;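 further: 0% = cytokine-treated negative control wells and 100% = positive control rescue; higher means more ATP so stronger rescue from cytokine killing; wells of about 40 µL received 100 nL stock; the first replicate is given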
RanGTP-Impb inh = disruptors of Ran-importin-beta complex formation – biochemical, FRET, CFP-Ran, YFP-importin-beta, homogeneous, primary screen; inhibition, % (test concentration not listed); hit rate 1.1% among 300,000; AID 2216; cell-free CFP-Ran/YFP-importin-beta FRET ratio;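 active means most replicates above 15%; inconclusive means exactly half above 15%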;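 further: 0% = DMSO wells and 100% = Ran loaded with GDP instead of GTP; wells of about 40 µL received 100 nL stock; the first replicate is given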
T cruzi inh = T. cruzi replication inhibition. T. cruzi beta-gal in NIH3T3, luminescence, 90 h. inhibition, % (no concentration beside the values). hit rate 1.4% among 300,000;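 active means mean inhibition across valid replicates above about 55%, limit read from the data; inconclusive means mean below that limit but half or more replicates reach it; inactive means mean below it, under half of replicates reach it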;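 further: signal also drops with host cell toxicity which is not excluded here; 0% = plate median of DMSO wells and 100% = zero luminescence signal; higher percent means less beta-gal luminescence so fewer parasites; stock transfer was 50 nL into about 50 µL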
B2AR ag = human beta-2 adrenergic receptor agonism by FAP; response, % (concentration not given with the values); Am2.2-beta2AR cells, FAP receptor internalization, flow cytometry; reference of the scale not given here; hit rate 0.43% among 340,000; AID 504454; P07550;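 active means response above a set limit, near 3 SD of response in nonfluorescent compounds, cut at about 42% in these data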;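 further: stock transfer was 100 nL into about 11 µL; a reference agonist was the positive control; negative values mostly stem from fluorescent compounds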
A1 inh = inhibitors of the anti-apoptotic protein A1, read as caspase activation; hit rate 0.066% among 330,000; AID 2462; caspase activation, % (test concentration not listed); MEF A1-2A-BIM cells, Caspase-Glo 3/7 luminescence, 3 h; percent of clofoctol response, vehicle zero;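 active means over half of replicate activation scores above 10%, or exactly half above 10 with the replicate mean above 10; inconclusive means replicate mean below 10 yet half the replicates above 10; inactive means over half of replicates below 10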;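 further: wells of about 30 µL received 50 nL stock; many hits fall short of the cut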
An asterisk follows results filed as active; ? = inconclusive; . = no result given.

cpd	Compound	LANA-H2B inh	UCH37 inh	Calb FLC	Beta cell apopt	RanGTP-Impb inh	T cruzi inh	B2AR ag	A1 inh
1	O=C(CSc1nnc(-c2cccs2)n1-c1ccccc1)NCC1CCCO1 (stereo unspecified)	0.2	-0.1	5	-5	-2.2	5	-7	-0.6
2	Cc1ccc(NC(=O)c2cc(-c3cc(C)c(C)cc3O)n[nH]2)cc1C	0.3	1.5	-6	-3	-3.3	-22	4	?
3	CCOc1ccc(Cl)cc1CNCCCSc1ncccn1	-7.6	1.4	-14	.	?	14	-14	-0.7
4	Cc1noc(C)c1S(=O)(=O)N1CCC(C(=O)N2CCN(c3ccc(F)cc3)CC2)CC1	7.1	5.7	1	5	1.9	-1	.	0.4
5	CCN(CC)c1ccc(C2C(C(=O)OC(C)C)C(=O)CC(C)(O)C2C(=O)OC(C)C)cc1 (stereo unspecified)	-1.7	2.0	?	10	4.1	-4	13	-1.0
6	O=S(=O)(NCCCc1ccccc1)c1ccc(F)c(F)c1	-2.9	0.7	3	-19	-2.9	12	9	-0.3
7	COCCN(C(=S)Nc1cccc(OC)c1)C(C)c1cccs1 (stereo unspecified)	2.3	-1.3	3	-4	-5.6	-27	4	0.0
8	CC(=O)Nc1ccc(S(=O)(=O)N2c3ccc(F)cc3CCC2C)cc1 (stereo unspecified)	3.0	4.3	12	15	3.4	0	15	0.1
9	O=C(NCc1ccco1)c1sc2cc(Cl)ccc2c1Cl	-3.1	3.6	-4	0	-1.8	-33	-9	1.1
10	Cc1ccc(-n2nnnc2SC(C)C(=O)Nc2ccc(Cl)cn2)cc1 (stereo unspecified)	-1.5	-0.2	46	-4	-3.9	-2	-3	-0.5
11	C#CCOCCOCCOCCNc1nc(N2CCN(C(=O)C([C@@H](C)CC)n3cc(C(N)CC(C)C)nn3)CC2)nc(N2CCN(C(=O)[C@H](CCC(=O)O)n3cc(C(N)CC(C)C)nn3)CC2)n1 (stereo partly specified)	-4.6	1.3	-2	1	-4.3	0	10	0.5
12	O=c1cnnc(Nc2ccccc2F)[nH]1	-2.6	2.2	-7	.	0.0	-2	1	-0.7
13	COc1ccc(/C=C/C(=O)Nc2ccncc2)cc1OC	6.9	-190	2	-13	0.5	23	11	0.0
14	CCOc1ccccc1N(CC)C(=O)c1ccc2c(=O)n3c(nc2c1)CCCCC3	-2.5	1.3	-3	3	0.6	0	-4	-0.1
15	O=C(NCCN1CCOCC1)c1cc2sccc2n1Cc1ccc(F)cc1	0.8	2.7	0	-9	-2.0	-4	13	0.1
16	COc1ccc(C(c2c(O)ccc3ccccc23)N2CCOCC2)c(OC)c1 (stereo unspecified)	1.6	.	87*	-16	9.6	48	18	0.1
17	O=C(CN1CCCCC1)Nc1ccc(Br)cc1[N+](=O)[O-]	-2.5	2.1	5	3	-2.4	20	-1	-0.2
18	O=C(c1ccc(Cl)cc1)N1CCCC(C(=O)N2CCN(c3ccccc3)CC2)C1 (stereo unspecified)	-1.4	-1.1	-4	-2	0.2	7	-3	1.7
19	N#Cc1ccccc1OCC(=O)Nc1ccc2c(c1)OCCO2	2.4	4.3	.	6	.	.	-10	-1.4
20	CCN1CCCC1CNC(=O)c1cc2cc(OC)c(OC)cc2[nH]1 (stereo unspecified)	-2.2	-337	-4	-3	-1.8	23	3	0.6
21	CCOc1ccc(NC(=O)c2ccc(N3CC4CC(C3)c3cccc(=O)n3C4)c(NC(=O)c3cccnc3)c2)cc1 (stereo unspecified)	2.4	4.3	2	-1	-3.1	17	1	-0.3
22	COC(=O)c1cc(C#N)c(N2CC(C)OC(C)C2)nc1C (stereo unspecified)	9.9	-0.3	6	-3	-1.2	-6	1	0.3
23	CN(C)CCN(C(=O)c1ccccc1Cl)c1nc2c(Cl)cccc2s1	0.7	-1.0	-31	-2	-1.5	44	12	0.1
24	FC(F)(F)c1nc(NCC2CCCO2)c2nnn(Cc3ccccc3Cl)c2n1 (stereo unspecified)	-2.3	5.8	-14	2	0.9	40	-12	-0.2
25	COc1ccc(-c2nn(C)c3sc(C(=O)NCc4ccco4)cc23)cc1OC	2.0	-71	-3	-6	0.3	1	8	-0.7

Grouped by structure, the compounds so far containing two or more sulfur atoms.
cpd	Compound	LANA-H2B inh	UCH37 inh	Calb FLC	Beta cell apopt	RanGTP-Impb inh	T cruzi inh	B2AR ag	A1 inh
1	O=C(CSc1nnc(-c2cccs2)n1-c1ccccc1)NCC1CCCO1 (stereo unspecified)	0.2	-0.1	5	-5	-2.2	5	-7	-0.6
7	COCCN(C(=S)Nc1cccc(OC)c1)C(C)c1cccs1 (stereo unspecified)	2.3	-1.3	3	-4	-5.6	-27	4	0.0

Other structures follow:
cpd	Compound	LANA-H2B inh	UCH37 inh	Calb FLC	Beta cell apopt	RanGTP-Impb inh	T cruzi inh	B2AR ag	A1 inh
26	COc1cccc(N2CCN(C(=O)c3ccc(CS(=O)Cc4ccc(C)cc4)o3)CC2)c1 (stereo unspecified)	1.7	2.7	1	-3	1.3	-15	1	2.6
27	O=[N+]([O-])c1ccc(O)c(/C=N/NC2=NS(=O)(=O)c3ccccc32)c1	2.8	.	-13	1	2.8	1	2	-7.3
28	Cc1ccccc1OCC(=O)Nc1ccc2c(c1)OCO2	1.8	-0.7	-14	0	-1.9	4	6	-1.1
29	N#Cc1ccc(COc2ccc(CCO)cc2-n2nc3ccccc3n2)cc1	3.3	-4.2	10	-4	-1.0	3	1	0.7
30	CC[C@@H](NS(=O)(=O)c1ccc(C)cc1)C(=O)Oc1ccc2c3c(c(=O)oc2c1)CCC3	.	-246	-13	-3	4.2	-4	10	-0.4
31	N#Cc1cc2c(nc1SCc1ccc(Cl)nc1)CCCCC2	0.5	4.0	-2	10	2.8	6	1	-0.8
32	O=C(O)CCCNC(=O)c1ccccn1	0.9	3.1	0	-1	7.2	-30	4	-0.7
33	O=S(=O)(NC1CCCCC1NS(=O)(=O)c1ccc(F)cc1)c1ccc(F)cc1 (stereo unspecified)	1.3	0.3	5	.	0.7	0	12	-0.6
34	CCOC(=O)c1nc(Nc2ccc(OC)cc2)c2ccccc2n1	2.0	9.5	11	.	-1.2	6	-2	0.1
35	CCOc1cc(CNn2cnnc2)cc(Br)c1OCC(=O)NC1CCCCC1	5.0	0.8	2	-1	5.0	12	-14	-0.9
36	Cc1c(NC(=O)C(C)OC(=O)c2c3c(nc4ccccc24)CCC3)c(=O)n(-c2ccccc2)n1C (stereo unspecified)	.	-4.2	11	-4	4.3	21	-6	-0.4
37	CCn1c2ccccc2c2cc(N=C3SC(CC(=O)Nc4ccccc4OC)C(=O)N3C)ccc21 (stereo unspecified)	-1.4	2.5	17	0	3.6	41	-1	-0.3
38	CC(=O)c1cccc(CN2CCCC(C(=O)Nc3ccc(-c4ccco4)cc3)C2)c1 (stereo unspecified)	-0.1	5.1	5	.	?	47	12	0.0
39	O=C(c1ccc(COc2c(F)c(F)c(F)c(F)c2F)o1)N1CCOCC1	-3.5	-2.7	-6	-5	2.4	-7	18	1.0
40	NS(=O)(=O)c1ccc(NC(=O)COC(=O)c2ccc3c(c2)OCCO3)cc1	.	1.7	-1	-5	-1.1	-18	-2	-1.4
41	O=C(Nc1ccccc1)Nc1nnc(-c2ccccc2)s1	0.8	5.9	5	-1	?	.	-1	0.2
42	CC12COC3(C(=O)Nc4ccccc4)CC1CCC32C (stereo unspecified)	-1.2	6.3	15	-7	4.6	5	-9	0.7
43	COc1cccc(NC(=O)CN(C)C(=O)c2cccnc2Sc2ccc(C)c(C)c2)c1	2.5	1.4	0	2	.	-2	3	0.2
44	CCCCNC(=O)N(O)C1N(/N=C/c2cccs2)C(=S)SC1(C)C (stereo unspecified)	-1.3	.	-6	0	0.9	7	-3	-0.1
45	C[C@H](CO)N1C[C@H](C)[C@@H](CN(C)C(=O)NC2CCCCC2)Oc2ccc(NC(=O)Cc3ccccc3)cc2C1=O	6.0	11	.	-3	.	.	0	0.3
46	COc1ccccc1C(=O)Nc1c2c(nn1-c1ccc([N+](=O)[O-])cc1)CS(=O)(=O)C2	0.9	-0.3	-9	.	2.0	2	1	-0.6
47	O=C(C1=C[C@@H](c2ccc(C(F)(F)F)cc2)C[C@@H](OCCCCO)O1)N1CCOCC1	1.7	3.8	-6	1	1.4	-5	-9	1.0
48	O=C(CCC(=O)N1CCN(c2ccccc2F)CC1)c1ccc(F)cc1	-4.7	1.6	?	0	3.8	22	-2	1.0
49	COCCN(Cc1cc2cc(C)ccc2n2nnnc12)C(=S)Nc1ccc(C)cc1	2.2	0.5	16	3	-3.3	3	-1	1.6
50	CC(C)(C)C(=O)Nc1ccc(C(=O)Nc2cc(NC(=O)c3ccc(NC(=O)C(C)(C)C)cc3)cc(C(=O)O)c2)cc1	5.1	6.6	5	-4	-1.9	-11	5	1.9

Next compounds follow:
cpd	Compound	LANA-H2B inh	UCH37 inh	Calb FLC	Beta cell apopt	RanGTP-Impb inh	T cruzi inh	B2AR ag	A1 inh
51	N#Cc1c(N)n(-c2ccc(O)cc2)c2nc3ccccc3nc12	0.5	-18	7	-6	?	-7	-3	1.3
52	Cc1nc(NC(=O)CSc2nnc(C3CC3)n2N)c(Cl)cc1Cl	2.2	2.4	.	-4	.	.	-8	-0.6
53	CCOC(=O)C1(C(C)(C)CC)CC(CSc2nc3ccccc3[nH]2)OC1=O (stereo unspecified)	-2.6	1.0	-5	-10	-3.8	-10	0	0.0
54	OC(COCC1COc2ccccc2O1)CN1CCN(c2ccccc2)CC1 (stereo unspecified)	.	0.8	-12	6	-3.8	20	7	0.1
55	CCOc1ccc(NC(=O)CN(C)C(=O)c2ccc(NC3CC3)c([N+](=O)[O-])c2)cc1OCC	5.1	2.3	.	-5	-0.7	6	-9	0.3
56	N#C/C(=C\c1ccc(Cl)cc1)C(=O)NC1CC1	1.3	3.5	3	-1	-0.3	-10	-2	0.4
57	CCOC(=O)c1sc(-c2cccc(C(F)(F)F)c2)nc1O	-5.6	-24	0	-14	-26	7	1	0.4

Screening results deposited in PubChem by several laboratories.
